# Source: PubChem BioAssay
# 14-3-3 Bad inh: disrupts binding of bovine 14-3-3 zeta to phospho-Bad peptide; inhibition, % at 21.7 µM; 0.71% of 220,000 active; AID 781; TR-FRET 14-3-3zeta/Dy647-pBad peptide displacement, 1 h;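 active means inhibition above about 70%, limit read from the data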;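 further: 0% = full 14-3-3 plus peptide FRET controls and 100% = background without 14-3-3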
# MDM2 E3 inh: Mdm2 E3 ligase (human) inhibition; Q00987; cell-based MDM2 ubiquitination luciferase reporter, 2 h; 0 = plate control, 100 = twice control, blank-subtracted; signal enhancement, % at 5 µM; 0.11% of 210,000 active;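 active means signal enhancement of 30% or more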;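 further: luminescence tracks abundance of the self-degrading MDM2-luciferase fusion protein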
#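 Timing – 2 h compound exposure at 37 °C · Assay system – mammalian cells stably expressing self-ubiquitinating, self-degrading MDM2 E3–luciferase fusion · Amount – 2000 cells seeded into each well · Measure – % luminescence enhancement versus blank-corrected plate control mean · Measured by – SteadyLite luminescence, 15 min reagent step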
# p97 inhibitor: inhibitors of human p97 ATPase. P55072. inhibition, % at 8 µM. 0.42% of 220,000 active. recombinant p97 ATPase, Kinase-Glo ATP luminescence, 3 h; in the data active means inhibition above about 15%;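 further: 0% = DMSO vehicle and 100% = wells lacking enzyme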
# eIF4E-4G inh: inhibitors of eIF4E and eIF4G interaction in translation initiation. P63073+Q04637. inhibition, % at 21.7 µM. TR-FRET eIF4E-eIF4GI(517-606) binding, 2 h. AID 782. 0.37% of 220,000 active;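 active means inhibition above about 30%, limit read from the data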;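 further: 0% = full FRET control wells and 100% = background wells lacking eIF4GI fragment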
# Rad51 HR inh: Rad51 (human) homologous recombination inhibition; 0.085% of 200,000 active; hRad51 DNA strand exchange, fluorescence dequenching; Q06609; inhibition, % at 10 µM;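 active means inhibition above 40% at the single screening dose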;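 further: 0% = DMSO control wells and 100% = blanks with heterologous ssDNA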
# Target sequence (Q06609 whole entry, looked up): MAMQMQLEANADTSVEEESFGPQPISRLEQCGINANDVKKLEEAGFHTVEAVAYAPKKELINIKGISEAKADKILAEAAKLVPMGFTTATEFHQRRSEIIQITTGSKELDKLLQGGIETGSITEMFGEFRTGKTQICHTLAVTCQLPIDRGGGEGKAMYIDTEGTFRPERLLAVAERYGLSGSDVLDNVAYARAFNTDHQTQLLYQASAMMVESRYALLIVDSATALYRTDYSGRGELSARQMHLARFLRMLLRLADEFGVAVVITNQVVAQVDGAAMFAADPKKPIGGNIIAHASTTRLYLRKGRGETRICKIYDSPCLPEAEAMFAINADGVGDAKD
#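 Material: Human Rad51 nucleoprotein filaments preassembled on unlabelled ssDNA | Also added: Labelled 47-mer dsDNA for strand exchange | Dosing: Single dose, 10 µM final compound | Schedule: 30-min compound preincubation and 15-min exchange, both room temperature | Technique: Fluorescence dequenching at 485/520 nm | Measure: Percent inhibition relative to plate controls and blanks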
# * hit, by the source's call; . = no result given; [ ] = remark or other dose.
SMILES,14-3-3 Bad inh,MDM2 E3 inh,p97 inhibitor,eIF4E-4G inh,Rad51 HR inh
CC(C)(C)c1ccc(C(O)CCCN2CCC(C(O)(c3ccccc3)c3ccccc3)CC2)cc1 (centres undefined),-6,.,-3,1,-6
COc1ccccc1C(=O)n1nc(-c2ccco2)nc1N,-2,-9,2,-1,.
CCn1nc(C(=O)O)c(=O)c2cc3c(cc21)OCO3,-2,.,8,-2,7
O=C(c1ccccc1)n1nnc2ccccc21,4[fluorescence artefact?],-14,-6,11[fluorescence artefact?],-4
Cc1ccc2nc(NCc3ccccc3)c(C=NCc3cccnc3)c(=O)n2c1,2,.,-7,-4,-3
COc1ccc(S(=O)(=O)n2nc(OC(=O)c3ccco3)cc2N)cc1,19[fluorescence artefact?],-15,11,-4,3
Cc1ccc(C(=O)n2nc(-c3ccco3)nc2N)cc1,-3,-7,2,4,-6
CSc1nc(-c2ccco2)nn1C(=O)c1cccs1,-4,-22,6,-7,-7
CN(C)c1ccnc2sc(C(N)=O)c(N)c12,5,-18,-5,5,2
COc1ccc(C(=O)n2nnc3ccccc32)cc1OC,7,1,5,-9,.
COC(=O)C1=C(C)NC(C)=C(C(=O)OC)C1c1ccccc1[N+](=O)[O-],0,.,-3,6,-7
CN(C)c1ccc(C(=O)n2nnc3ccccc32)cc1,1,-9,-6,3,7

# An excerpt from above in order of number of heavy atoms, low to high.
SMILES,14-3-3 Bad inh,MDM2 E3 inh,p97 inhibitor,eIF4E-4G inh,Rad51 HR inh
O=C(c1ccccc1)n1nnc2ccccc21,4[fluorescence artefact?],-14,-6,11[fluorescence artefact?],-4
CN(C)c1ccc(C(=O)n2nnc3ccccc32)cc1,1,-9,-6,3,7
Cc1ccc2nc(NCc3ccccc3)c(C=NCc3cccnc3)c(=O)n2c1,2,.,-7,-4,-3
CC(C)(C)c1ccc(C(O)CCCN2CCC(C(O)(c3ccccc3)c3ccccc3)CC2)cc1 (centres undefined),-6,.,-3,1,-6

# An excerpt from above, limited to p97 inhibitor.
Compound,p97 inhibitor
CCn1nc(C(=O)O)c(=O)c2cc3c(cc21)OCO3,8
O=C(c1ccccc1)n1nnc2ccccc21,-6
Cc1ccc2nc(NCc3ccccc3)c(C=NCc3cccnc3)c(=O)n2c1,-7

# The results go on.
SMILES,14-3-3 Bad inh,MDM2 E3 inh,p97 inhibitor,eIF4E-4G inh,Rad51 HR inh
Nc1nc2c(ncn2COCCO)c(=O)[nH]1,-1,.,3,-1,-6
Cc1cc2c(=O)oc(-c3ccccc3Br)nc2s1,-4,-12,0,-1,8
Cc1ccc(C(=O)n2cnnc2N)cc1C,-4,-20,3,5,-1
COc1ccc(C(=O)n2c(SC)nc3cc4c(cc32)OCCO4)cc1,-8[fluorescence artefact?],-5,-2,-7[fluorescence artefact?],-2
COc1ccc(C(=O)n2ncc(C#N)c2N)cc1,-9,-1,-1,-4,13
CCN(CC)CCNC(=O)c1ccc(N)cc1,-3,.,4,2,-7

# Part of the list above, tab-delimited.
SMILES	14-3-3 Bad inh	MDM2 E3 inh	p97 inhibitor	eIF4E-4G inh	Rad51 HR inh
Cc1cc2c(=O)oc(-c3ccccc3Br)nc2s1	-4	-12	0	-1	8
Cc1ccc(C(=O)n2cnnc2N)cc1C	-4	-20	3	5	-1
COc1ccc(C(=O)n2c(SC)nc3cc4c(cc32)OCCO4)cc1	-8[fluorescence artefact?]	-5	-2	-7[fluorescence artefact?]	-2
COc1ccc(C(=O)n2ncc(C#N)c2N)cc1	-9	-1	-1	-4	13

# This is a subset, so the mix of outcomes need not match the whole.
